Bst PK mod = alters activity of Bacillus stearothermophilus pyruvate kinase | 1.2% of 51,000 active | partly purified Bacillus stearothermophilus pyruvate kinase, luminescence ATP production; ribose 5-phosphate activator present at AC10 | Potency, µM | AID 361; in the data active means potency below about 11 µM; inconclusive means mostly about 12 µM to 25 µM; inactive means weaker than that;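 the screen sought inhibitors and activators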;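 note: potency is the fitted concentration of half-maximal effect; scaled between full activation by ribose 5 phosphate and full inhibition by luteolin; about four in five hits inhibit and the cells do not say which; series up to 57 µM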
TsaE inh = displaces an ADP probe from E. coli YjeE (TsaE) | P0AF67 | purified YjeE, fluorescence polarisation of a bound ADP probe | Potency, µM | 0.05% of 71,000 active; active = well fitted falling curve; inconclusive = weaker or top-dose-only fall, or a rising curve; inactive = flat or poorly fitted curve;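 note: top concentration of the series not given in the record; excess ADP was the control for the full effect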
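Purified YjeE (10 uM) with BODIPY Texas Red-labeled ADP probe (2 uM); compounds pin-transferred, 15 min at room temperature. Binding inhibition read as decreased fluorescence polarization; ADP titration as control.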
* hit, by the source's call; i = inactive; ? = inconclusive; · = not tested or not shown.

SMILES | Bst PK mod | TsaE inh
CSc1nc2cc(Cl)ccc2s1 | >57 | i
CCOC(=O)c1ccc(NC(=O)COC)cc1 | >57 | i
COc1cc(NC(=O)CN2CCN(c3ccccc3F)CC2)cc(OC)c1 | >57 | i
O=c1c2c3c(sc2n(CCN2CCOCC2)c(=O)n1Cc1ccco1)CCCCC3 | >57 | i
CCOC(=O)N1CCN(CCC(=O)Nc2cccc(Br)c2)CC1 | >57 | i
COCC(=O)N1CCC2(CCCN(C(c3ccccc3)c3ccccc3)C2)CC1 | · | i
O=C(c1ccccc1F)N1CCC(N2CCCCCC2)CC1 | >26 | ·
Cc1c(-c2nc(N)nc(C3CC3)c2C)nc(N)nc1C1CC1 | · | i
CN(C(=O)c1cccnc1)c1nnc(-c2ccccn2)s1 | >57 | i
COc1ccccc1-c1cc(C(=O)NCCN2CCOCC2)no1 | >57 | i
COCC(=O)N(C)c1nnc(-c2ccccn2)s1 | >57 | i
COCCNS(=O)(=O)c1ccc(OCC(=O)OC)c(Cl)c1 | >57 | i
Cc1cc(NC(=O)C2CCCCC2C(=O)O)no1 (stereo not given) | >57 | i
O=C1CSC(=NC2CCCCC2)N1 | >57 | i
CC1(C)O[C@@H]2O[C@H]([C@@H]3COC(C)(C)O3)[C@H](N)[C@H]2O1 | · | i
O=C(CCN1C(=O)COc2ccccc21)NCc1cccs1 | >57 | i
COc1cccc(N(CC(=O)O)S(=O)(=O)c2ccccc2)c1 | >57 | i
CC1CCN(C(=O)CSc2nnc(CNC(=O)c3ccco3)o2)CC1 | >57 | i
CCN(CC)C(=O)CSc1nc2ccccc2c(=O)n1-c1ccccc1OC | >57 | i
CCOC(=O)/N=C(/NC(=O)Nc1ccc(C(=O)OCC)cc1)OC | >57 | i
CCCC(OC(=O)CN1C(=O)COc2ccccc21)C(=O)NC1CCCC1 (stereo not given) | >57 | i
CC(=O)c1ccc(N2CCN(C(=O)c3ccc(OCc4c(C)noc4C)cc3)CC2)cc1 | >57 | i
COc1cc(S(=O)(=O)N(C)C)ccc1F | >57 | i
O=C(CS(=O)(=O)Cc1ccccc1)Nc1ncccn1 | >57 | i
CSCCNC(=O)c1ccc(C(C)(C)C)cc1 | ? | i

Next section:
SMILES | Bst PK mod | TsaE inh
O=C(O)CCC(=O)Nc1ccccc1C(=O)NC1CCCCC1 | >57 | i
Nc1nc(-c2cccnc2)nn1C(=O)COc1ccccc1 | >57 | i
CC(C)(C)n1nc2c(c1NC(=O)c1cccs1)CS(=O)C2 (stereo not given) | >57 | i
COc1ccccc1NC(=O)Cc1cccs1 | >57 | i
Cc1noc(NS(=O)(=O)c2ccc(N/C=C/C(=O)c3ccc4c(c3)OCO4)cc2)c1C | · | i
CCc1c(C)n([O-])c2c([n+]1=O)CCCCC2 | · | i
Cc1ccc(SCCC(=O)NCC2CCCO2)cc1 (stereo not given) | >57 | i
CN1C(=O)N(C)C2C1N(CN1CCCCC1)C(=O)N2CN1CCCCC1 (stereo not given) | >57 | i
Nc1ccccc1C#CCCCCO | · | i
Cc1cscn1 | · | i
O=C1OCCC1Sc1nc2cc(Cl)ccc2s1 (stereo not given) | >57 | i
O=C(CSc1nnc(Cn2c(=O)sc3ccccc32)n1-c1ccccc1)NCC1CCCO1 (stereo not given) | · | i
O=C(CNC(=O)Cn1ccc2ccccc2c1=O)NCCCN1CCN(c2cccc(Cl)c2)CC1 | >57 | i
CCOC(=O)c1sc(=S)n(-c2cccc(OC)c2)c1N | >57 | i
O=C(c1ccco1)N1CCC2(CC1)CCN(c1ncccn1)CC2 | · | i
Cc1cc(N2CCC(C)CC2)n2ncc(-c3ccccc3)c2n1 | ? | i
Cc1n[nH]c(=O)nc1NCC1CCCO1 (stereo not given) | >57 | i
COC(=O)c1c(C)[nH]c(C(=O)C(C)Sc2nnc(-c3cc(OC)c(OC)c(OC)c3)o2)c1C (stereo not given) | >57 | i
COc1ccc(C(C)C)cc1S(=O)(=O)Nc1ccc(Cl)cn1 | >57 | i
CC(C)C12CN3CC(C(C)C)(CN(C1)C3c1ccccc1)C2O (stereo not given) | · | i
O=C(OCC(=O)N1CCCCC1)c1c[nH]c(=O)[nH]c1=O | >57 | i
COc1ccc(C2C(C(=O)Nc3ccccc3OC)=C(C)Nc3nnnn32)c(OC)c1 (stereo not given) | >57 | i
O=C1CC(c2ccccc2)Sc2ccccc2N1 (stereo not given) | >57 | i
O=S1(=O)N=C(Nc2ccc(N3CCOCC3)cc2)c2ccccc21 | · | i
CCOc1cccc(NC(=O)c2ccc(S(=O)(=O)N(C)C)cc2)c1 | · | i

Reprinted at random: 7 compounds from above
SMILES | Bst PK mod | TsaE inh
O=C1OCCC1Sc1nc2cc(Cl)ccc2s1 (stereo not given) | >57 | i
COC(=O)c1c(C)[nH]c(C(=O)C(C)Sc2nnc(-c3cc(OC)c(OC)c(OC)c3)o2)c1C (stereo not given) | >57 | i
O=C1CC(c2ccccc2)Sc2ccccc2N1 (stereo not given) | >57 | i
Nc1nc(-c2cccnc2)nn1C(=O)COc1ccccc1 | >57 | i
COc1ccc(C2C(C(=O)Nc3ccccc3OC)=C(C)Nc3nnnn32)c(OC)c1 (stereo not given) | >57 | i
Cc1cc(N2CCC(C)CC2)n2ncc(-c3ccccc3)c2n1 | ? | i
Cc1cscn1 | · | i

(further entries)
SMILES | Bst PK mod | TsaE inh
COc1ccc(OCCC(=O)OCC(=O)NCc2ccco2)cc1 | >57 | i
CC1(c2cccs2)CC(c2cccs2)=C(C#N)C(=O)N1 (stereo not given) | >57 | i
Cc1c(C(N)=O)c(N)c(C(=O)c2ccccc2)n1-c1ccccc1 | · | i
CCN(CC)S(=O)(=O)c1ccc(NC2c3ncccc3C(=O)N2Cc2ccccc2)cc1 (stereo not given) | >57 | i
O=C(CN1CCC(NC(=O)c2cccc(F)c2)CC1)NCc1ccccc1F | >57 | i
CC(C)N(C(=O)CN(C#N)c1nc(N(C)C)nc(N(C)C)n1)c1ccccc1 | · | i
CC(C)c1cc(NCCN2CCOCC2)n2c(nc3ccccc32)c1C#N | >26 | ·
CCc1oc(C(=O)O)cc1CN(CC)CC | >57 | i
CCOC(=O)NC(=O)CSc1nnnn1-c1ccc(Cl)cc1 | >57 | i
Cn1c(NCCO)nc2c(c1=O)C1(CCCCC1)Cc1ccccc1-2 | · | i
Clc1ccc(Cn2ncc3c(N4CCCCC4)ncnc32)cc1 | >57 | i
COc1ccc(OC)c(C2C(C(C)=O)=C(O)C(=O)N2c2ccc(O)cc2)c1 (stereo not given) | >57 | i
O=C(O)c1cc(/C=N\O)ccc1OCc1ccccc1 | >57 | i
COC(=O)[C@H](C)NC(=O)Nc1ccc(C)c(C)c1 | >57 | i
c1ccc(C2=Nn3c(nnc3-c3n[nH]c4c3CCC4)SC2)cc1 | >57 | i
c1ccc2nc(-c3nc4ccccc4[nH]3)ccc2c1 | 0.54* | i
C=C(C)c1cccc(C(C)(C)NC(=O)Nc2ncccn2)c1 | >57 | i
CC(C)CC(=O)Nc1ccc(-c2cn3ccsc3n2)cc1 | 2.7* | i
CC(CN1CCCC1)OC(=O)COc1ccccc1 (stereo not given) | >57 | i
COc1ccc(/C(O)=C2/C(=O)C(=O)N(CCCN(C)C)C2c2ccccc2)cc1Cl (stereo not given) | >26 | ·
COc1ccc(Cn2nnnc2C(c2cccs2)N2CCSCC2)cc1 (stereo not given) | >57 | i
CCOC(=O)c1[nH]c(C)c(/C=N/O)c1C | >57 | i
COc1ccc(CN2CCN(C(=O)CC(C)C)CC2)c2ccccc12 | >57 | i
CC(NC(=O)OCc1ccccc1)C(=O)OCN1C(=O)c2ccccc2C1=O (stereo not given) | >26 | ·
N#Cc1c(SCC(N)=O)nc2c(c1-c1ccc(O)cc1)CCCC2 | · | i

(list continues)
SMILES | Bst PK mod | TsaE inh
CCC(C)NC(=O)C(NS(=O)(=O)c1cccc2nsnc12)c1ccccc1 (stereo not given) | >57 | i
Brc1c(CSc2nncn2-c2ccccc2)nc2sccn12 | >57 | i
Cc1c(C(=O)Nc2ccncc2)oc2ccccc12 | >57 | i
CN1C(=O)N(C)C(NC(=O)Nc2ccccc2)C1NC(=O)Nc1ccccc1 (stereo not given) | >57 | i
COc1ccc(S(=O)(=O)N2CCN(C(=O)[C@@H]3CCC(=O)N3C3OC(=O)c4ccccc43)CC2)cc1 (stereo not given in full) | >57 | i
COc1ccccc1OCc1nnc(SCC(=O)NCc2ccco2)n1Cc1ccco1 | >57 | i
COc1ccc(CC(NC(C)=O)C(=O)NC2CCN(c3c4c(nc5ncnn35)CCC4)CC2)cc1 (stereo not given) | >57 | i
c1cc2c(cc1Nc1nc(-c3ccc4c(c3)OCO4)cs1)OCCO2 | ? | i
CS(=O)(=O)N(C(=O)NC(=O)NC1CCS(=O)(=O)C1)C1CCCCC1 (stereo not given) | >57 | i
O=C(Nc1ccc(N2CCCC2)cc1)c1ccc(Br)o1 | · | i
COc1cc(NC(=O)c2cc3ccccc3o2)c(OC)cc1Cl | · | i
COc1ccc(NC(=O)CN2CCN(CC(=O)Nc3ccc4c(c3)OCO4)CC2)cc1 | >57 | i
CSc1cccc(NC(=O)OC2CCCCCCCCCCC2)c1 | · | i
CCOc1cccc(C(=O)N(Cc2ccc(F)cc2)C2CCS(=O)(=O)C2)c1 (stereo not given) | >57 | i
Cc1cccc(-c2nc(CSCC(=O)N3CCN(c4ccccn4)CC3)c(C)o2)c1 | >57 | i
CC(=O)NCCNc1ncnc2ccc(-c3c(C)noc3C)cc12 | · | i
COC(=O)CCN(C(=O)C1C2CC3CC(C2)CC1C3)c1ccccn1 (stereo not given) | >57 | i
CCCCN(CC)C(=O)Cc1c(C(=O)O)[nH]c2ccc(Cl)cc12 | >57 | i
O=C1CCCN1CC(CN1CCOCC1)Sc1nnnn1-c1ccccc1 (stereo not given) | >57 | i
Cc1ccc(C)c(S(=O)(=O)Nc2ccc(S(=O)(=O)Nc3onc(C)c3C)cc2)c1 | >57 | i
O=S(=O)(NCc1ccc2c(c1)OCO2)c1cccc(S(=O)(=O)N2CCOCC2)c1 | >57 | i
CCCC(c1nnnn1C1CCCCC1)N1CCN(C2CCCC2)CC1 (stereo not given) | >57 | i
NC(=O)c1cc(Cl)cn(-c2ccccc2)c1=O | · | i
CCOc1ccc(NC(=O)c2ccc(N)cc2)cc1 | · | i
Cn1c(SCc2nc3ccccc3[nH]2)nnc1-c1cccs1 | >57 | i

2 of the compounds above, as comma-separated lines.
compound,Bst PK mod,TsaE inh
Cc1cscn1,·,i
O=C1OCCC1Sc1nc2cc(Cl)ccc2s1 (stereo not given),>57,i

Continuation:
SMILES | Bst PK mod | TsaE inh
COc1ccc(CNC(=O)C2COc3ccccc3O2)c(OC)c1 (stereo not given) | >57 | i
CCOc1ccc(NC(=O)CCS(=O)(=O)c2ccc3c(c2)CCCN3C(C)=O)cc1 | >57 | i
CC1CCCN(C(=O)CSCC(=O)N=c2sc3ccccc3n2C)C1 (stereo not given) | >57 | i
CCNC(=O)c1ccccc1-c1nc(-c2ccccc2Cl)no1 | >11 | i
N#CCC(=O)NCCCOC(=O)Nc1ccc(Cl)c(Cl)c1 | · | i
Cn1nnnc1SCc1cn2cccnc2n1 | >57 | i
O=C(CSc1nc(-c2cccs2)cc(C(F)(F)F)n1)NCc1ccco1 | >57 | i
O=C(NC1CCCCCC1)c1ccc(N2CCCC2=O)cc1 | · | i
CCOC(=O)C1CCCN(C(=O)C2CC(=O)N(c3ccc(C)cc3)C2)C1 (stereo not given) | >57 | i
Cc1nonc1NC(=O)Nc1cccnc1 | >57 | i
O=S(=O)(Nc1nc2ccccc2nc1NCCO)c1cccc(Cl)c1 | >57 | i
O=C(c1cc(C(F)(F)F)cc(C(F)(F)F)c1)N1CCC2(CC1)CCN(c1ccncc1)CC2 | · | i
CC1(C)CC(=O)c2c(nc3ccccc3c2N)C1 | >57 | i
Cc1cc(C)nc(SCCCn2c(=O)[nH]c3ccccc32)n1 | · | i
COCCn1c(=O)c(-c2cccc(F)c2)nc2cncnc21 | · | i
Cc1ccc(C(c2sc3ncnn3c2O)N2CC(C)CC(C)C2)cc1 (stereo not given) | · | i
CC(C)(C)NC(=O)Cn1nnc(-c2ccccc2Cl)n1 | >57 | i
Cn1nnnc1SCc1cc(=O)n2ccsc2n1 | >57 | i
CCOC(=O)c1[nH]c(C(=O)O)c(CCN(CC)CC)c1C | >57 | i
N#Cc1ccccc1-n1c(N)c(C(=O)N2CCCC2)sc1=S | >57 | i
NC(=O)NC(=O)COC(=O)CCCc1c[nH]c2ccccc12 | >57 | i
CCN1C(=O)C(O)(C2COC(C)(C)CC2=O)c2cc(Br)ccc21 (stereo not given) | >57 | i
COc1ccc(S(=O)(=O)N(C)CC(=O)O)c2ccccc12 | · | i
COc1ccccc1N1CCN(c2ncnc3nc[nH]c23)CC1 | · | i
NC(=O)C1(N2CCCCC2)CCN(CC(=O)Nc2cc(Cl)ccc2Cl)CC1 | >57 | i
CC(=O)Nc1ccc(C2(O)COc3ccccc3O2)cc1 (stereo not given) | >57 | i
Cc1ccc(N2C(=O)c3ccc(N)cc3C2=O)cc1 | · | i
O=C(Nc1cccnc1)c1cn(-c2ccccc2)nc1-c1cccs1 | 10* | i

Profiles, quoted from the list. Order of screens: Bst PK mod, TsaE inh
`Cc1nonc1NC(=O)Nc1cccnc1` is listed as >57, i
`Cc1ccc(C(c2sc3ncnn3c2O)N2CC(C)CC(C)C2)cc1` (stereo not given) is listed as ·, i
`CC1(C)CC(=O)c2c(nc3ccccc3c2N)C1` is listed as >57, i

A portion of the library; the hit share may differ from the screen's.
